H5N1 CPE: MDCK cell protection from H5N1 avian flu; cytopathic effect, luminescence, 72 h; active compounds read high; no value below 0 was filed and about half of the inactive calls have no number; reference of the scale not given here; inhibition, % at 50 µM; 96,000 tested, 0.07% active; AID 740, 2007; in the data active = inhibition above about 25%
* marks the source's active call; other numbers are inactive results; i = inactive. Some of the compounds tested; the hit share may differ from the screen's.

mol | H5N1 CPE
CCOC(=O)CN(C(=O)CSc1nnc(-c2cccc(OC)c2)o1)c1ccc(F)cc1 | 0.5
O=C(C1CCCO1)N(Cc1ccccc1)c1ccccc1 (stereo unspecified) | i
O=C(c1oc2ccccc2c1N1CCCCC1)N1CCCCC1 | 1.1
CCC(=O)NC(=S)Nc1cccc(NC(=O)c2ccc(Cl)cc2Cl)c1 | i
Cc1ccc(-n2nc(C)c3c2OC(N)=C(C#N)C3c2ccoc2)cc1 (stereo unspecified) | i
CCOCCCNC(=O)C1CCN(S(=O)(=O)N(CC(C)C)CC(C)C)CC1 | 0.2
CCOC(=O)COc1ccc(/C=C/[N+](=O)[O-])c(OCC(=O)OCC)c1 | 1.8
CCCN1C(=O)SC(CC(=O)Nc2ccccc2)C1=O (stereo unspecified) | 1.2
CC(C)(CC(=O)N1CCN(c2ccc(Cl)cc2)CC1)CC1=NS(=O)(=O)c2ccccc2N1 | 1.6
C=CCn1c(/N=C/c2ccc(N(C)C)cc2)nc2ccccc21 | i
O=C(O)c1cccc(NC(=O)C2C3C=CC(C3)C2C(=O)O)c1 (stereo unspecified) | i
O=C(N1CCN(Cc2ccccc2)CC1)C12CC3CC(CC(C3)C1)C2 | 1.4
Cc1nc(CS(=O)(=O)c2ccccc2)cc(Sc2ccc(Cl)cc2)n1 | 1.1
O=C(NCc1ccc(Cl)cc1)c1cc(-c2ccco2)on1 | 2.6
CCOC(=O)c1c(NC(=O)/C=C/c2ccc(C)o2)sc(C)c1C | 1.5
Cc1ccc(S(=O)(=O)Nc2cccc(NC(=O)CN3CCCCC3)c2)cc1 | i
CC1=CC(C)(C)N(S(=O)(=O)c2ccc(C)cc2)c2ccc(C)cc21 | 6.5
Cc1cc2ccccc2c(=O)n1CC(=O)NC1CCCCCC1 | i
COC(=O)c1sc2ccccc2c1NC(=O)c1cccs1 | i
CC1CCN(CC(=O)n2c3c(c4ccccc42)CCCC3)CC1 | 0.9
COC(=O)c1noc(-c2ccc(OC)cc2)n1 | 1.0
Cc1ccnc(NS(=O)(=O)c2ccc(NC(=O)C3CCCNC3=O)cc2)n1 (stereo unspecified) | i
O=C(COC(=O)CNC(=O)c1ccco1)NCCN1C(=O)CSC1=O | i
CCOC(=O)CCNCC1COc2ccccc2O1 (stereo unspecified) | 0.1

Four entries from above, with each value named:
Cc1ccc(S(=O)(=O)Nc2cccc(NC(=O)CN3CCCCC3)c2)cc1
  H5N1 CPE = i

CC1=CC(C)(C)N(S(=O)(=O)c2ccc(C)cc2)c2ccc(C)cc21
  H5N1 CPE = 6.5

Cc1cc2ccccc2c(=O)n1CC(=O)NC1CCCCCC1
  H5N1 CPE = i

COC(=O)c1sc2ccccc2c1NC(=O)c1cccs1
  H5N1 CPE = i

(list continues)
mol | H5N1 CPE
CCn1cc(S(=O)(=O)CC(=O)Nc2ccc(C)cc2)c2ccccc21 | 0.8
COc1ccccc1CC1(C)NC(=O)N(CC(=O)N2CCc3ccccc3C2)C1=O (stereo unspecified) | 0.6
O=C1N=C(N2CCN(c3cccc4ccccc34)CC2)S/C1=C/c1cccs1 | i
COC(=O)c1ccccc1NC(=S)NC(=O)c1ccccc1 | 1.4
O=c1c2ccccc2nc2n1-c1ccccc1CCC2 | 0.6
CCc1ccc(C(=O)Nc2cc3c(cc2Cl)OCCCO3)cc1 | 11.6
Cc1nn(Cc2cccc(C(=O)Nc3ccn(Cc4ccccc4F)n3)c2)c(C)c1[N+](=O)[O-] | 0.3
COc1ccc(OC)c(NC(=O)C2CCCC2)c1 | 0.9
O=C(Oc1cccc([N+](=O)[O-])c1)c1cc(-c2ccccc2)nc2ccccc12 | i
Cc1ccc(Sc2c(C=O)c3ccccc3n2C)cc1 | i
COc1ccc(CC(=O)NCc2cn3ccsc3n2)cc1 | 0.1
O=C(c1ccc(Br)o1)N1CCN(C/C=C/c2ccccc2)CC1 | i
Cc1cccc(N2C(=O)CC(N3CCC(c4nc5ccccc5[nH]4)CC3)C2=O)c1 (stereo unspecified) | 0.1
CC1=C(C)CC(C(=O)c2ccccc2)C(C(=O)O)C1 (stereo unspecified) | 0.6
COc1ccccc1/C=N/NC(=O)C(NC(=O)c1ccccc1)=C(C)C | i
CSCCC(NC(=O)c1ccc(=O)n(C)n1)c1nc2ccccc2[nH]1 (stereo unspecified) | 0.3
CC(C)OCCCNC(=O)c1ccc(CS(=O)(=O)Cc2ccccc2F)o1 | i
COCCCn1cnc2oc3nc4ccccc4nc3c2c1=O | 0.1
CON/C=C(\C=Nc1ccccc1)c1ncc(C(F)(F)F)cc1Cl | i
COc1ccc(OC)c(CCNC(=O)CN2C(=O)CC(C)(C)S(=O)(=O)c3ccccc32)c1 | 0.8
CCCCNC(=O)c1ccccc1C(=O)NCCCC | i
COc1ccc(S(=O)(=O)N2CCC(C(=O)N3CCCC3)CC2)cc1Cl | i
Cc1cc2nc(C)n(CCCN)c2cc1C | 1.1
CSCCC(NS(=O)(=O)c1ccc2c(c1)oc(=O)n2C)C(=O)NC1CCCc2ccccc21 (stereo unspecified) | i
CCOC(=O)c1oc2ccccc2c1CN1CCOCC1 | i
CCC(OC(=O)C1=Cc2ccccc2OC1)C(=O)NC1CCCC1 (stereo unspecified) | i
c1ccc(-c2ccc(C3=Nn4c(nnc4-c4cc(-c5ccccc5)n[nH]4)SC3)cc2)cc1 | 1.7
COc1ccc(CNC(=O)C2CCN(c3nccs3)CC2)cc1 | 0.4
CCCN1Cc2cccc(C(=O)NC(C)c3cccs3)c2C1=O (stereo unspecified) | i
CCN(Cc1ccccc1)S(=O)(=O)c1ccc(S(=O)(=O)N2CCN(C)CC2)cc1 | i
O=C(CCS(=O)(=O)c1ccc(Cl)cc1)N1CCN(c2ccccc2F)CC1 | 0.1
CN(C(=O)c1cnc2n(c1=O)CCS2)C1CCCCC1 | 1.4
COCc1nnc(NS(=O)(=O)c2c(C)cc(C)cc2C)s1 | 0.0
O=C(O)CSc1nnc(-c2cccnc2)n1Cc1ccccc1 | 0.0
CN(C)C(=O)CCCc1nc(-c2ccc(Cl)cc2)no1 | 1.0
CC(CCc1ccccc1)NC(=O)c1ccc(Br)o1 (stereo unspecified) | i
CCOC(=O)c1ccccc1NC(=O)CSc1nc2ccccc2n1CC(=O)N1CCCC1 | i
CCOC(=O)c1cccc(NC(=O)COC)c1 | i
CCC(C)[C@@H](NC(=O)OC(C)(C)C)c1nnc(S(=O)(=O)Cc2cccc(C)c2)o1 (stereo partly specified) | 19.8
COc1ccccc1-c1cc(C(=O)NCc2ccc(F)cc2)no1 | i
COC(=O)CNC(=O)C12CC3(C)CC(C)(CC(C)(C3)C1)C2 | 1.3
Cc1cccc(CCNS(=O)(=O)c2cnc[nH]2)c1 | 0.1
CC(=O)Nc1ccc2c(c1)CCCN2C(=O)c1ccccc1 | i
N#CC1=C(N)Oc2cc3ccccc3cc2C1c1cccnc1 (stereo unspecified) | 0.9
Cc1nc2sc(C(c3cccs3)N3CCN(C(=O)c4ccco4)CC3)c(O)n2n1 (stereo unspecified) | 2.7
O=C(c1ccc2c(c1)C(=O)N(Cc1ccco1)C2O)N1CCOCC1 (stereo unspecified) | i
COc1ccc2c(C(F)(F)F)cc(=O)oc2c1C | i
COC(=O)CSc1nc(C2CC2)nc2ccccc12 | i
CCN(C1CCCCC1)S(=O)(=O)c1cc(C)ccc1OC | 0.9
N#C/C(=C/c1ccc(Sc2nc3ccccc3[nH]2)o1)c1ccccc1F | i
C=C(C)Cn1c(SCC(=O)O)nnc1-c1ccc(OC)cc1 | 6.3
Cc1nc2ccc(NC(=O)c3c(-c4ccccc4)noc3C)cc2s1 | i
Cn1c(O)c(C(c2ccccn2)c2c(O)n(C)c(=S)n(C)c2=O)c(=O)n(C)c1=S | i
CCOc1cccc(C(=O)Nc2ccc(N3CCN(S(C)(=O)=O)CC3)cc2)c1 | 1.0
Cc1ccc(CSCCNC(=O)c2ccc(Cl)c(S(=O)(=O)N3CCOCC3)c2)cc1 | 1.1
NC(=O)c1c(NC(=O)COC(=O)CSc2nnc(-c3ccc(Cl)cc3)o2)sc2c1CCC2 | 0.3
CCCCN(CCCC)S(=O)(=O)c1ccc(C(=O)Nc2nnc(COC)o2)cc1 | 0.3
CCCN(CCC)C(=O)CSc1nc2n[nH]c(C)c2c(=N)n1-c1ccc(OCC)cc1 | i
COc1cccc(CNC(=O)C2CCN(Cc3cnn(-c4ccccc4)c3-n3cccc3)CC2)c1 | i
CCOc1ccc(-n2c(C)nnc2SCC(=O)N(CC)CC)cc1 | 0.5

Pulled one by one from the list above:
mol | H5N1 CPE
NC(=O)c1c(NC(=O)COC(=O)CSc2nnc(-c3ccc(Cl)cc3)o2)sc2c1CCC2 | 0.3
N#C/C(=C/c1ccc(Sc2nc3ccccc3[nH]2)o1)c1ccccc1F | i
Cn1c(O)c(C(c2ccccn2)c2c(O)n(C)c(=S)n(C)c2=O)c(=O)n(C)c1=S | i

Next entries:
mol | H5N1 CPE
Cc1ccccc1OCC(=O)NNC(=S)NC(=O)c1ccco1 | 0.8
CC(=O)c1cc(NC(=O)c2cccc(C(F)(F)F)c2)c(=O)oc1/C=C/N(C)C | i
COc1ccc(C2CC(C(F)(F)F)n3nc(C(=O)N(C)Cc4cn(C)nc4C)c(Cl)c3N2)cc1 (stereo unspecified) | 5.7
COc1ccc(C2CC(=O)Nc3sc(=N)c4c(N)c(C#N)c(N)nc4c32)cc1OC (stereo unspecified) | 1.3
Cc1ccc(CNC(=O)Cn2c([N+](=O)[O-])cnc2C)cc1 | i
COc1cc(-c2nnc(SCC(=O)/C(C#N)=C(\C)N)o2)cc(OC)c1OC | 6.0
CCOc1nc(-c2ccccc2)ccc1-c1noc(-c2cccs2)n1 | i
O=S(=O)(c1ccc2c(c1)OCCO2)N1CCC(c2nc3ccccc3[nH]2)CC1 | i
O=C(Nc1cccc2ncccc12)C12CC3CC(CC(C3)C1)C2 | 2.4
CCOC(=O)c1sc(NC(=O)CSc2nnc(-c3ccco3)o2)c(C(=O)OCC)c1C | i
CCN(CC)S(=O)(=O)c1ccc(OC)c(NC(=O)CSc2ccccc2)c1 | 1.3
CCCCCCCCNC(=O)CCNC(=O)c1ccc(C(C)(C)C)cc1 | 0.3
O=C(NCc1ccc2c(c1)OCO2)C1CCCN1C(=O)Nc1ccccc1 (stereo unspecified) | 0.1
CC(=O)Oc1ccc2oc3c(c2c1)C(=O)CCC3 | i
COc1ccc(C(=O)Nc2ccc(CN3CCOCC3)cc2)cc1 | 0.8
O=C(COc1ccc(Cl)cc1Cl)NC(=O)N1CCOCC1 | 1.1
Cc1ccc(/C(O)=C2/C(=O)C(=O)N(CCN3CCOCC3)C2c2cccnc2)cc1 (stereo unspecified) | i
Cc1ccc(C(=O)CCCn2nnc(-c3cccnc3)n2)cc1C | 0.2
CCOC(=O)c1ccc(NS(=O)C23CC4CC(CC(C4)C2)C3)cc1 (stereo unspecified) | i
CCCCCCCC(=O)NC(Nc1ccccc1OC)C(Cl)(Cl)Cl (stereo unspecified) | i
CN(C(=O)OCc1ccccc1)C(CC(N)=O)C(=O)O (stereo unspecified) | 0.2
N#C[C@@H]1[C@@H]2C(=O)N(c3ccc4c(c3)OCCO4)C(=O)[C@@H]2C2c3ccccc3C=CN21 (stereo partly specified) | 0.6
Cc1c(C(=O)N2CCC(C)CC2)sc2ncnc(N3CCN(c4ccccc4)CC3)c12 | 2.5
CCCCN=c1scc(-c2ccc3c(c2)NC(=O)CO3)n1N=C1CCCC1 | i
O=C(CSc1ccccc1)Nc1ccc(NC(=O)c2ccco2)cc1 | i
O=C(CSC1=NC(=O)C(Cc2ccccc2)C(=O)N1)NC1CCCCC1 (stereo unspecified) | i
CCOC(=O)C(C)Sc1nnc(Cc2cc(=O)[nH]c(=O)[nH]2)n1-c1ccc(OCC)cc1 (stereo unspecified) | 0.1
Cc1ccc(CSc2ncn(-c3ccccc3)n2)cc1 | i
Cc1ccc(-c2nnn(CC(=O)N(CC3CCCO3)C(C(=O)NC3CCCC3)c3ccc(F)cc3)n2)o1 (stereo unspecified) | 0.3
CCCC1(CCC)NC(=O)NC1=O | i
CCOCCCNS(=O)(=O)c1ccc(Br)cc1 | 1.2
CCc1cccc2c(=O)c(C(=O)N3CCOCC3)c[nH]c12 | 0.1
CCCn1c(=S)[nH]c2cc(OC)c(OC)cc2c1=O | i
CC(Cc1ccccc1)N/C=C1/CC(=O)NC1=O (stereo unspecified) | i
CCCCOc1ccc(C(=O)Oc2ccc(C)nc2)cc1 | i
CS(=O)(=O)N(CC(=O)N1CCC(C(N)=O)CC1)c1ccc(Oc2ccccc2)cc1 | i
Cc1sc2ncn(C(C)C(=O)OC3CCCCC3)c(=O)c2c1C (stereo unspecified) | 0.1
O=C(OCc1nc2ccccc2[nH]1)C12CC3CC(CC(C3)C1)C2 | 0.5
Cc1ccccc1-n1c(Cc2cccs2)n[nH]c1=S | 1.0
O=C(Nc1ccccc1C(F)(F)F)c1ccc(CN2CCC(Cc3ccccc3)CC2)cc1 | i
O=C(CCNc1ccccc1)c1cccc([N+](=O)[O-])c1 | i
COc1cccc(NC(=O)C2CCN(c3ncccn3)CC2)c1 | i
CCOC(=O)c1ccc(Oc2nc(NC(C)(C)C)nc(N(C)C)n2)cc1 | i
Cc1ccc(C(=O)CCC2CCCC2=O)cc1 (stereo unspecified) | 0.2
O=C1NC(c2cccs2)Nc2ccccc21 (stereo unspecified) | 1.1
O=C(Nc1cccc(NC(=O)c2cccnc2)c1)c1cccnc1 | i
COc1ccc(N2CCN(C(=O)CSc3nnc4c(C)cc5c(C)cc(C)cc5n34)CC2)cc1 | 0.5
CCCSc1nc(NCc2ccco2)c2c3c(sc2n1)COC(C)(CC)C3 (stereo unspecified) | 2.1
Cc1cc(O)c(C(C)C)cc1NC(=O)c1ccc(Cl)cc1 | i

High-throughput results from PubChem BioAssay.
